Mtb hypoxia rep = PubChem AID 1159583; fluorescence inhibition, % (no concentration beside the values); M. tuberculosis hypoxia-regulated fluorescent reporter, fluorescence; hit rate 0.1% among 300,000;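 active = 35 to 45% if threefold the growth effect, above 45% if 1.5-fold the growth effect; inactive = the rest, general growth blockers included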;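 also: wells of about 50 µL received 100 nL stock; 0% = vehicle wells and 100% = reference inhibitor wells; whole bacteria with a GFP reporter of the hypoxia response; strong numbers were not always called active; many hits fall short of the cut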
BJeLR lethal = MLPCN primary cell-based screen for lethality selective to Ras in HRASV12 cells; inhibition, % (concentration not given with the values); BJeLR (HRASV12) viability, CellTiter-Glo ATP luminescence, 48 h; reference of the scale not given here; AID 1554, 2009; hit rate 0.17% among 300,000;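 active = replicate mean above 50%; inconclusive = above 50% but judged a plate artefact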;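 also: 50 nL library stock added to about 25 µL; numbers are from one replicate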
Sa ugtP lethal = growth inhibition of ugtP-null S. aureus, primary screen, RN4220 ugtP deletion, OD600; growth inhibition, % (concentration not given with the values); 16 h; some inactives read as strong as hits; hit rate 0.54% among 330,000;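 active = z-score under -3 and OD600 up to 0.15 on both plates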;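 also: plate controls were untreated wells for no effect and antibiotic for full effect; wells of about 80 µL received 100 nL stock; the first replicate is given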
Sa RN4220 lethal = growth inhibition of S. aureus RN4220, primary screen, OD600; AID 1259311, 2017; inhibition, % (concentration not given with the values); 16 h; hit rate 0.33% among 330,000;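 active = z-score of -3 or lower and OD600 up to 0.18 on both plates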;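 also: plate controls were untreated cells for no effect and reference antibiotic for full effect; stock transfer was 100 nL into about 80 µL; one replicate is shown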
Autofluor counter = counter-screen for toxin protease inhibitors: compound fluorescence | compound autofluorescence counterscreen, microsphere flow cytometry; active compounds read high | fluorescence intensity (no concentration beside the values) | hit rate 3.1% among 360,000;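 active = at least 3 SD above the mean of all compounds, about 16000 in these data; inconclusive = too few beads counted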;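 also: 100 nL of 1 mM stock went into each well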
PrP UTR inh = inhibition of PrP 5' UTR reporter expression. cell-based PrP 5' UTR mRNA reporter, plate reader. inhibition, % (no concentration beside the values). hit rate 0.35% among 340,000. AID 488862, 2010;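 active = every replicate at 50% or more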;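 also: 0 = median of the neutral control wells; tested in H4 reporter cells; numbers are from one replicate; inactives centre near -14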
Mtb hypoxia rep growth = second read-out of Mtb hypoxia rep, no call of its own (marks repeat the call); growth inhibition, %; measured here: M. tuberculosis growth (absorbance);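 0% = vehicle and 100% = reference antibiotic; read after six days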
An asterisk follows results filed as active; ? = inconclusive; . = not tested or not shown. Rows were taken by chance, and some 3.9% of all compounds hit somewhere here.

SMILES	Mtb hypoxia rep	Mtb hypoxia rep growth	BJeLR lethal	Sa ugtP lethal	Sa RN4220 lethal	Autofluor counter	PrP UTR inh
Cc1cc(C(=O)NC(Cc2ccccc2)C(=O)O)c(C)o1 (stereo unspecified)	-10	2	8	0	1.9	3364	3
O=C(NC1CCCC1)C(c1ccccc1)N(C(=O)c1csnn1)C1CCCC1 (stereo unspecified)	8	-4	-3	2	2.1	3344	-9
COc1ccc2c(c1)sc(N)[n+]2Cc1cc(C)cc2cccnc12	7	7	52*	-13	2.2	9119	44
Cc1cc(C(F)(F)F)c2sc(N)nc2n1	.	.	1	9	1.0	3649	-14
COc1cc(NC(=O)c2cc(Cl)ccc2Cl)ccc1-c1cc2ccccc2oc1=O	7	12	8	-7	19	22732*	4
CC1CCCN(CCOCCOc2ccccc2-c2ccccc2)C1 (stereo unspecified)	15	10	-2	-3	2.1	2793	3
Cn1nccc1C(=O)NC1CCCc2c1cnn2-c1ccccc1F (stereo unspecified)	5	5	-12	2	1.0	5326	-8
C1CCc2c(nc3nnnn3c2NCC2CC2)C1	5	-1	-1	4	2.2	3259	-17
CCOC(=O)CC1c2ccccc2S(=O)(=O)N1Cc1cc(OC)c(OC)c(OC)c1 (stereo unspecified)	14	8	.	7	6.1	.	.
COc1ccc(Cc2nnc(SCC(=O)Nc3ncc(C)s3)o2)cc1	8	0	-2	4	1.1	8160	-18
Cc1ccccc1S(=O)(=O)Cc1ccc(C(=O)NCc2ccc(F)cc2)o1	-9	-16	-11	1	9.4	2627	-4
Cc1ccc(OCC(=O)Oc2ccc(C)c(C)c2)cc1	-3	-1	-6	4	1.3	4141	-10
CCCCC(=O)NC(=S)Nc1ccc(NC(=O)C(C)C)c(OC)c1	4	17	-1	3	19	4417	-96
CCN1C(=O)[C@H]2[C@@H](c3ccc(SC4CCCCC4)cc3)N3CCCC[C@@]3(C(=O)OC)[C@H]2C1=O	.	.	-13	.	.	2922	-2
COc1ccccc1CCNC(=O)C(=O)NCC1CCCN1S(=O)(=O)c1ccccc1 (stereo unspecified)	-3	0	5	4	1.1	?	-18
Cn1cc(CN2CCC(n3nccc3NC(=O)c3ccccc3Cl)CC2)cn1	7	9	5	2	2.0	5598	-17
Cc1cccc(NC(=O)CSc2nnc(C)c(C)n2)c1	6	1	-5	-1	2.4	3506	-12
COc1ccc(Br)cc1CN1CCN(C(=O)c2ccco2)CC1	5	8	-12	15	4.0	3819	-12
CCC(C)(C)n1nnnc1C(c1cccc(C#N)c1)N1CCN(c2cccc(C)c2C)CC1 (stereo unspecified)	2	3	-3	31	2.0	7828	-21
O=C(c1cc(S(=O)(=O)N2CCOCC2)c(Cl)cc1Cl)N1CCCC1	-6	10	.	5	2.9	5161	-25

Reprinted at random: 3 compounds from above, in no set order.
SMILES	Mtb hypoxia rep	Mtb hypoxia rep growth	BJeLR lethal	Sa ugtP lethal	Sa RN4220 lethal	Autofluor counter	PrP UTR inh
Cc1cc(C(=O)NC(Cc2ccccc2)C(=O)O)c(C)o1 (stereo unspecified)	-10	2	8	0	1.9	3364	3
O=C(NC1CCCC1)C(c1ccccc1)N(C(=O)c1csnn1)C1CCCC1 (stereo unspecified)	8	-4	-3	2	2.1	3344	-9
COc1cc(NC(=O)c2cc(Cl)ccc2Cl)ccc1-c1cc2ccccc2oc1=O	7	12	8	-7	19	22732*	4

(continued)
SMILES	Mtb hypoxia rep	Mtb hypoxia rep growth	BJeLR lethal	Sa ugtP lethal	Sa RN4220 lethal	Autofluor counter	PrP UTR inh
Cc1ccc(Nc2cc(C)nc3nc(C)nn23)cc1	.	.	-5	.	.	4319	-4
CC(C)CNC(=O)CC(=O)NN=C1CCCC1	-6	7	0	6	5.0	2522	-10
CC1CC(=O)Nc2cc([N+](=O)[O-])ccc2N1 (stereo unspecified)	17	13	0	4	4.5	4563	-27
Cc1cc(C)c2cc(C(=O)Nc3ccc4c(c3)OCO4)[nH]c2c1	12	8	-10	1	1.5	.	.
COc1ccccc1CNC(=O)CCn1c(=O)[nH]c2ccsc2c1=O	0	5	12	5	5.3	21437*	-10
O=[N+]([O-])c1ccc(N2CCCC2)c(F)c1Br	10	-3	-3	-8	18	2455	-15
COc1cccc(NC(=O)CCC2CCN(C(=O)c3cncs3)CC2)c1	7	-2	1	-5	1.2	5753	-21
COc1ccc(S(=O)(=O)N2CCN(CC(=O)Nc3cc(Cl)ccc3Cl)CC2)cc1	-10	5	.	-1	-2.3	6110	8
Cc1ccc(NC(=O)c2ccc(Cl)c(S(=O)(=O)Nc3c(C)n(C)n(-c4ccccc4)c3=O)c2)cc1Cl	1	7	.	-12	2.8	5376	32
O=c1[nH]c(=S)n(-c2ccc(Br)cc2)c2ncccc12	15	10	0	0	0.5	6351	-10
Cc1cccc(C(C(=O)NC2CCCC2)N(C(=O)c2csnn2)C2CC2)c1 (stereo unspecified)	5	3	-6	0	-0.3	6014	-8
CC1(C)C/C(=N\O)C(C(O)c2cccc([N+](=O)[O-])c2)C(C)(C)N1 (stereo unspecified)	.	.	-1	.	.	4058	-25
O=c1c2ccccc2nnn1CSc1nc2sc3c(c2c(=O)n1CC1CCCO1)CCC3 (stereo unspecified)	5	4	-12	-8	4.8	8242	-21
CCCN(C(=O)CSc1nnnn1C)c1c(N)n(Cc2ccccc2)c(=O)[nH]c1=O	18	12	1	12	6.8	4433	-12
COc1ccc(CC(=O)OCC(=O)NC(=O)NC2CCCC2)cc1	11	23	.	4	0.4	3801	-3
CCCNC(=S)NC1CC2CCCC(C1)N2Cc1ccc(F)cc1 (stereo unspecified)	3	2	-10	3	1.4	3719	-16
COCc1cc(C)n(CC(=O)N/N=C/c2ccc(-c3ccc(Cl)c(C(=O)O)c3)o2)c(=O)c1C#N	.	.	-7	.	.	2497	-12
O=C(COC(=O)c1ccc(S(=O)(=O)N2CCCC2)cc1)Nc1cccc(F)c1	.	.	.	6	0.4	3127	-27
CCn1c(SCC(=O)NC2CC2)nnc1-c1csc(C)c1	2	-1	-1	3	1.5	4241	-23
CCC(=NNC(=O)C1CCCC1)c1cccc(Br)c1	10	5	.	8	10	.	.
CC1Oc2ccccc2OC1(O)c1ccc2ccccc2n1 (stereo unspecified)	9	10	5	8	9.7	9728	-33
O=C(CC(c1ccccc1)(c1ccccc1)c1ccccc1)NC(Cc1ccc(O)cc1)C(=O)O (stereo unspecified)	7	0	.	-5	1.7	.	.
CC(C)c1ccc(NC(=O)CN(Cc2ccccc2)S(C)(=O)=O)cc1	.	.	2	5	11	3431	11
O=C1C2C3c4ccccc4C(c4ccccc43)[C@@H]2C(=O)N1c1ccccn1 (stereo partly specified)	5	8	-1	1	3.6	4339	-31
CC1CCCC(C)N1C(=O)Cn1cnc2cc([N+](=O)[O-])ccc2c1=O (stereo unspecified)	-14	1	-5	11	-0.8	4425	-37
NC(C(=O)O)c1cc(=O)[nH]o1 (stereo unspecified)	-11	-2	.	0	4.3	5773	-28
CC(Nc1ccc2c(c1)OCCO2)C(=O)Nc1ccc2c(c1)OCO2 (stereo unspecified)	13	15	.	3	2.8	3799	-36
O=C(CCC1CCCN(C(=O)C2=CCCC2)C1)N1CCN(c2ccccn2)CC1 (stereo unspecified)	-1	-1	0	0	5.8	4417	-4
O=S(=O)(Nc1ccc(-n2cccc2)cc1)c1ccc(Cl)cc1Cl	7	9	-10	-7	13	4139	-10
COc1ccc(-c2c(-c3cc(OC)cc(OC)c3)n(C)c3ccc(-c4ccc(N(C)C)nc4)cc23)cc1	7	6	.	12	-0.1	4048	-25
Cn1nnnc1SCC(=O)Nc1ccc(Cl)c(S(=O)(=O)N2CCOCC2)c1	-7	-9	4	-4	-2.3	5719	-8
CCNC(=S)NN=Cc1cccc(OCc2c(F)cccc2Cl)c1	4	7	.	-18	3.4	.	.
Cc1nc(C)c(/C(O)=C\c2nc3ccc([N+](=O)[O-])cc3oc2=O)o1	10	13	13	3	2.9	.	.
COc1ccc(-c2ccc(-c3nnc(-c4ccncc4)o3)cc2)cc1	0	8	-7	-13	10	.	.
O=C(Nc1ccc(F)cc1F)N1CCCCCC1	-1	-2	-1	6	4.6	4312	-13
O=C(Nc1cccnc1)Nc1ccc(F)c(Cl)c1	10	10	2	-12	-11	23140*	-34
O=C(COc1ccccc1)N1CCN=C1SCc1ccccc1F	11	5	9	13	2.4	4703	-3
O=C(c1ccc2c(c1)N(Cc1ccc(F)cc1)CCS2)N1CCC2(CC1)OCCO2	-6	-6	-11	-3	7.2	4811	-3
C=CCOc1nc(-c2ccncc2)nc2ccccc12	2	-6	-2	17	4.4	3149	2
CCOc1ccc(N2C(=O)CC(Sc3n[nH]c(-c4ccccc4)n3)C2=O)cc1 (stereo unspecified)	-11	0	-5	12	6.8	2469	-10
Cc1ccc(C)c(CN2C(=O)COc3ccc(C(=O)c4ccccc4C(=O)O)cc32)c1	0	3	-2	1	8.6	6600	-1
CCc1nnc(NC(=O)C2CC(=O)N(CCc3ccc(F)cc3)C2)s1 (stereo unspecified)	-2	-9	6	9	2.8	3619	-15
CC1CCc2nc(NC(=O)Nc3ccc4c(c3)OCO4)sc2C1 (stereo unspecified)	13	0	-21	-5	-15	9085	-39
CC1=NN(c2ccccc2)C(=O)/C1=C/c1c(O)n(-c2ccc(F)cc2)[nH]c1=O	3	8	5	5	19	7755	-17
COc1ccc(CN(C)S(=O)(=O)c2nnc(NC(=O)c3ccccc3Br)s2)cc1	-1	-4	6	64	1.7	6121	-15
C=CCS/C(=N\n1cnc2ccccc2c1=O)N(CC)CC	.	.	-1	.	.	3332	-22
O=C(CN1CCN(S(=O)(=O)c2ccccc2F)CC1)NCC1(N2CCOCC2)CCCCC1	12	10	.	9	7.0	8477	-17
COc1ccc(N(C(=O)c2ccc(F)cc2)C2=CC3CCC(C2)N3C)cc1 (stereo unspecified)	2	3	4	-4	-12	2383	-14
CCOCCCN1CC(C(=O)NCc2ccc3c(c2)OCO3)CC1=O (stereo unspecified)	3	5	10	8	1.9	4476	-14
C/C(=N\NC(=O)c1cc(C)oc1C)c1ccc2c(c1)OCO2	.	.	-7	.	.	2259	-28
CCC(C)Oc1cc(-c2ccnc(Nc3cccc(Cl)c3)n2)ccn1 (stereo unspecified)	4	-1	9	19	-5.5	3884	11
Cc1ccc(C)c(S(=O)(=O)N2CCN(C(=O)CCC(=O)NCc3ccc(Cl)cc3)CC2)c1	6	5	.	3	6.3	.	.
Cc1ccc(-n2nc(C)c3c(-c4cccs4)c(C#N)c(N)nc32)cc1	11	17	-3	-3	-0.5	3740	-21
COc1ccc(-[n+]2c(-c3ccccc3)cc(-c3ccccc3)cc2-c2ccccc2)cc1	.	.	42	16	27	.	.
COc1ccccc1CNC(=O)C1CCCN(S(=O)(=O)c2c(C)[nH]c(=O)[nH]c2=O)C1 (stereo unspecified)	.	.	5	7	3.0	4632	-13
CCN1CCN(c2ccc(NC(=O)c3ccc(Cl)c(S(=O)(=O)N4CCCC4)c3)cc2)CC1	0	2	.	-6	3.5	5731	-26
N=C1/C(=C\c2ccc(Br)o2)C(=O)N=C2SC(CC(=O)N3CCCCC3)=NN12	-6	1	-2	6	6.7	5600	2
O=C(CN1C(=O)COc2ccccc21)c1cccc(Cl)c1	6	5	7	1	2.5	11382	-17
Cn1nnnc1SCC(=O)c1ccco1	4	2	-9	-6	3.2	3408	-11
O=S1OC(c2ccccc2)c2cc(Cl)ccc21 (stereo unspecified)	12	6	-1	5	5.7	3687	-24

Some of the entries above, reformatted:
Values run as follows: Mtb hypoxia rep, Mtb hypoxia rep growth, BJeLR lethal, Sa ugtP lethal, Sa RN4220 lethal, Autofluor counter, PrP UTR inh
CCN1CCN(c2ccc(NC(=O)c3ccc(Cl)c(S(=O)(=O)N4CCCC4)c3)cc2)CC1
    0, 2, ., -6, 3.5, 5731, -26
CCc1nnc(NC(=O)C2CC(=O)N(CCc3ccc(F)cc3)C2)s1 (stereo unspecified)
    -2, -9, 6, 9, 2.8, 3619, -15

The list continues:
SMILES	Mtb hypoxia rep	Mtb hypoxia rep growth	BJeLR lethal	Sa ugtP lethal	Sa RN4220 lethal	Autofluor counter	PrP UTR inh
Cc1ccc(-n2c(C)cc(C=NNC(=O)c3ccc(CN4CCOCC4)cc3)c2C)cc1	6	5	.	4	-2.4	.	.
COc1cc(NC2=Nc3cccc4cccc2c34)cc(OC)c1OC	6	1	-1	-2	-1.8	8488	-13
C[C@@H]1CC=C[C@H]2[C@H]1C(=O)N(Cc1ccccc1)[C@H]2c1ccc2ccccc2c1	.	.	7	.	.	2886	-6
CN(C)S(=O)(=O)c1ccc(C(=O)NCC(=O)Nc2ccc(F)c(F)c2)cc1	-9	-3	3	-2	2.6	3921	-33

Screening data (PubChem)
